# GIRK2 activ – GIRK2 channel activation | 63,000 compounds, 0.05% hits | calls only for hits at 25 µM | HEK293-GIRK2 thallium flux, Thallos fluorescence | P48051;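 active = among the strongest 0.2% of first-round signals and kept after retests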;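 note: first round at about 10 µM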
# Target sequence (P48051 whole entry, looked up): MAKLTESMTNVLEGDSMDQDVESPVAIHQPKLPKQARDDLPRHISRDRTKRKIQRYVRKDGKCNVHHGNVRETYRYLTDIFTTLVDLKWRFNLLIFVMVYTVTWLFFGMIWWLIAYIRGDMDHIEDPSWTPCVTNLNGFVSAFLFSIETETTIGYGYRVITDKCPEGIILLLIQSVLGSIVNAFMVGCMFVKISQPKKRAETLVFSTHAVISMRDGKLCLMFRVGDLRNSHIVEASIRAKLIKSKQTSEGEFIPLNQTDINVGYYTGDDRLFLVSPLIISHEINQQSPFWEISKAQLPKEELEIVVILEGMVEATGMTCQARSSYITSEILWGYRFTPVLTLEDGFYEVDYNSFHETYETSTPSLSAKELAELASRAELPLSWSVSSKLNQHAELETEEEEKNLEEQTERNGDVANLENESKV
# Calls only; i = inactive. This is a subset. The share of hits here may be higher or lower than overall.
SMILES,GIRK2 activ
COC(=O)c1ccccc1NC(=O)CSc1nccnc1N1CCN(c2ccccc2OC)CC1,i
Cc1ccc2c(=O)c(C(=O)Nc3ccccc3)cn(CC(=O)Nc3c(C)cccc3C)c2n1,i
O=C(CN1N=NC2C(=O)N(c3ccc(F)c(F)c3)C(=O)C21)Nc1ccc2c(c1)OCO2 (stereo not given),i
Cc1ccc(-n2ncc3c(C)nnc(SCC(=O)N(C)c4ccccc4)c32)cc1C,i
O=C(Nc1cccc(-c2cnc3n2CCC3)c1)c1ccc(F)cc1F,i
CN1CCc2cc3c(cc2C2OC(O)c4c(ccc5c4OCO5)C21)OCO3 (stereo not given),i
O=C(CNC(=O)c1ccccc1)Nc1cnc(Oc2ccccc2F)nc1,i
Cc1nc2c(c(=O)n1CC(=O)Nc1ccccc1Cl)CCCC2,i
Cc1cc(=O)[nH]c(SCc2nc(-c3ccc(C)c(C)c3)no2)n1,i
COc1ccccc1CCNC(=O)C(=O)c1cn(CC(=O)N2CCCCC2)c2ccccc12,i
COc1ccccc1N1CCN(C(=O)c2csc(-c3cc4ccccc4n3C)n2)CC1,i
CN(c1ccsc1C(=O)NCc1cccnc1)S(=O)(=O)c1ccc(Cl)cc1,i
O=C(Nc1cc2ccccc2oc1=O)c1cc2n(n1)CCCO2,i
C=CCn1c(=S)[nH]c2cc(C(=O)Nc3ccc(F)cc3)ccc2c1=O,i
COc1cc(NC(=O)Nc2cnc(N(C)C)nc2)cc(OC)c1OC,i
Cc1ccc(NC(=O)Cn2nc3c(N4CCCC4)nccn3c2=O)cc1Cl,i
Cc1cc(=O)n(CCNC(=O)c2ccccc2Nc2ccccc2)cn1,i
Cc1cn2c3c(=O)n(CCN4CCCCC4)c(=O)n(C)c3nc2n1C(C)C,i
CCSc1nnc(NC(=O)c2cccc(-n3cnnn3)c2)s1,i
COc1ccc(Oc2c(C)oc3cc(OS(C)(=O)=O)ccc3c2=O)cc1,i
O=C(c1ccc(Cl)s1)N1CC(c2nc3ccccc3[nH]2)C1,i
COc1ccc(CSc2ncnc3nc[nH]c23)cc1,i
CCc1ccc2ncc(C#N)c(N3CCC(C(=O)NCc4ccccc4Cl)CC3)c2c1,i
CCc1nnc2c(N(C)S(=O)(=O)c3ccc(C)cc3)nc3ccccc3n12,i
COc1ncccc1C(=O)N1CCN(CC(O)c2cccs2)CC1 (stereo not given),i
CCOC(=O)/C(C#N)=C1\SC(Cc2cccc(Cl)c2)C(=O)N1c1ccc(C)cc1 (stereo not given),i
COc1ccc(CN2COc3ccc4c(c3C2)O/C(=C\c2ccc(OC)c(OC)c2OC)C4=O)cc1,i
O=C(O)c1cc2c(cc1Br)OCCO2,i
O=C(Nc1cccc2nsnc12)C1CCN(c2ccc(-c3cccs3)nn2)CC1,i
CCOc1ccccc1NC(=O)Cn1nc2c(N3CCN(c4ccccc4C)CC3)nccn2c1=O,i
CCCn1c(=O)c2c(nc3n(-c4ccccc4O)c(C)c(C)n23)n(C)c1=O,i
CC(C)(C)C(O)CCNC(=O)c1c(F)cccc1F (stereo not given),i
N#Cc1cccc(NC(=O)CN2CCc3[nH]c4ccccc4c(=O)c3C2)c1,i
NS(=O)(=O)c1ccc(NC(=O)c2csc3nc(-c4ccc(F)cc4)cn23)cc1,i
Cn1nc(CNC(=O)C2CC=CCC2)cc1-c1ccncc1 (stereo not given),i
COC(=O)c1ccc(Nc2c(C(=O)N3CCCCC3C)cnc3nc(C)ccc23)cc1 (stereo not given),i
COc1ccc(C(C)Nc2nccc(-n3nc(C)cc3C)n2)cc1OC (stereo not given),i
CC(C(=O)Nc1cccc(NS(C)(=O)=O)c1)n1nc(-c2ccc(F)cc2)ccc1=O (stereo not given),i
CC(NC(=O)C1CCCN(c2cc(-n3cccn3)ncn2)C1)c1ccccc1 (stereo not given),i
COc1cc(-n2nnc(C(=O)NC(C)C)c2N)ccc1Cl,i
CCOc1cccc2sc(-n3nc(C)cc3NC(=O)C3CC3)nc12,i
COC(=O)c1cc(-c2ccc(C)cc2)n(-c2ccc(S(N)(=O)=O)cc2)n1,i
O=C(NCCCS(=O)(=O)N1CCN(c2ncccn2)CC1)c1ccc([N+](=O)[O-])o1,i
COC(=O)c1sccc1NC(=O)Cn1c(C)cc(C)c(-c2nc(-c3ccccc3)no2)c1=O,i
Cc1nc2sc(C)c(C)n2c(=O)c1NC(=O)CCSc1ccccc1,i
Cc1ccc(NC(=O)CSc2nc3c(-c4ccccc4)c[nH]c3c(=O)n2C2CC2)cc1,i
O=C(Cc1ccc(F)cc1)Nc1cccc2ccc(-n3ccnc3)nc12,i
O=C(CCc1ccccc1)NCC1CCN(c2ccccn2)CC1,i
COc1ccc(OC)c2sc(N(CC3CCCO3)C(=O)COc3ccccc3F)nc12 (stereo not given),i
O=C(CSc1nccn1-c1cccc(C(=O)NCc2cccs2)c1)Nc1ccccc1F,i
# Next structures
SMILES,GIRK2 activ
O=C(Nc1ccc2c(c1)OCO2)c1ccc(OCc2nc(C3CC3)cs2)cc1,i
O=C(c1ccc(S(=O)(=O)N2CCCC2)cc1)N(C(=O)N1CCCCC1)c1ccccc1,i
O=C(Cn1nc2ccc(SC3CCCCC3)nn2c1=O)Nc1ccccc1,i
COc1cc2nc(SCC(=O)Nc3cccc(C(F)(F)F)c3)n3nc(C)nc3c2cc1OC,i
O=C(/C=C/c1cccs1)N1CCCC(COCc2ccccc2)C1 (stereo not given),i
COc1cccc2cc(C(=O)NCCOc3ccc(-c4cccnc4)nn3)oc12,i
C=CCn1c(SCCC(=O)NCc2ccc3c(c2)OCO3)nc2scc(-c3ccco3)c2c1=O,i
COc1ccc(-c2ccc(=O)n(C(C)C(=O)Nc3cccc(-c4csc(C)n4)c3)n2)cc1 (stereo not given),i
COc1ccccc1N1CC(c2nc3ccccc3n2Cc2ccccc2F)CC1=O (stereo not given),i
N#Cc1cccc(C(=O)N2CCN(C(=O)C3CC3c3ccc(F)cc3)CC2)c1 (stereo not given),i
CCCN1CCC=C(c2ccc(Nc3nc(Nc4ccccc4C(N)=O)c4cc[nH]c4n3)c(C)c2)C1,i
CCOC(=O)C(C)Oc1ccc2c(c1)O/C(=C\c1ccc(OC)c(OC)c1OC)C2=O (stereo not given),i
COc1ccc(NC(=O)CN2C(=O)NC3(CCCCC3C)C2=O)c(OC)c1 (stereo not given),i
CCC1CCCCN1C(=O)c1cc2c(=O)n3ccccc3nc2n1Cc1ccccc1 (stereo not given),i
O=C(Cn1nc2c(c1NC(=O)c1cc3ccccc3o1)CSC2)NCc1ccco1,i
Nc1ccccc1NC(=O)CCCCCCC(=O)Nc1ccccc1,i
O=C(c1cc(-c2cccs2)[nH]n1)N1CCC(c2nnc(C3CC3)o2)CC1,i
CCN(CC)CCN1C(=O)C(=O)C(=C(O)c2ccncc2)C1c1ccc(OC)c(OC)c1 (stereo not given),i
Cc1c(Cl)cccc1S(=O)(=O)Nc1ccc(-n2nnn(C)c2=O)cc1,i
C/C=C/c1cc(OC)c2c(c1)C(C)C(c1cc(OC)c3c(c1)OCO3)O2 (stereo not given),i
CCNC(=O)C1CCCN(c2nc3ncn(CC(=O)Nc4ccc(F)cc4)c(=O)c3s2)C1 (stereo not given),i
Cc1cn2nnc(C(=O)NC3CCc4ccccc43)c2c(=O)[nH]1 (stereo not given),i
O=C(c1cccs1)N1CCN(Cc2nnnn2-c2ccccc2)CC1,i
COc1ccccc1C1(CNC(=O)C2CC2)CCOCC1,i
COc1ccc(OC)c(C2C(C(=O)Nc3ccc(Cl)cc3)C(C)Nc3ncnn32)c1 (stereo not given),i
Cc1sc(NC(=O)C2CCN(S(=O)(=O)c3cccs3)CC2)c(C(N)=O)c1C,i
CCOC(=O)N1CCN(C(=O)Nc2nc(CC(=O)NC(C)C)cs2)CC1,i
NS(=O)(=O)c1ccc(CCNC(=O)C2CN(C(=O)COc3ccccc3F)C2)cc1,i
CNc1oc(-c2ccccc2)nc1S(=O)(=O)c1ccc(F)cc1,i
COc1ccc(-c2csc(-c3nnn(-c4cc(F)ccc4F)c3N)n2)cc1,i
Cc1ccc(N2CCN(C(=O)Nc3cccc(F)c3C)CC2)nn1,i
CCCNC(=O)C(=O)Nc1ccccc1[N+](=O)[O-],i
COc1ccc(OC)c(-c2cc(C(=O)N3CCC4(CC3)OCCCO4)n(C)n2)c1,i
CS(=O)(=O)C1CCN(C(=O)Nc2ccc(C(F)(F)F)cc2)CC1,i
COCCn1c(=O)c2c(nc3n(-c4ccc(Br)cc4)c(C)cn23)n(C)c1=O,i
Cc1nc2cc(NS(=O)(=O)c3cccc4cccnc34)ccc2s1,i
Cc1ccc(NC(=O)c2cnn(-c3ccc(-c4nc(C5CC5)no4)cn3)c2C)cc1,i
Cc1noc(-c2ccc(NC(=O)C3CC(=O)N(c4ccccc4)C3)cc2)n1 (stereo not given),i
O=[N+]([O-])c1ccc(CSc2nnc(-c3cccc(S(=O)(=O)N4CCCCCC4)c3)o2)cc1,i
O=C(Cn1ccc2ccccc21)N1CCN(C(=O)C2CC2c2ccccc2)CC1 (stereo not given),i
COc1cccc(NC(=O)N2CCN(Cc3nnnn3-c3ccccc3)CC2)c1OC,i
COCCn1cnc2c(-c3ccccc3)cn(CC(=O)Nc3ccc(Br)cc3)c2c1=O,i
COc1ccc(-n2nnc(C(=O)Nc3ccc(F)c(F)c3F)n2)cc1,i
Cc1ccc(N2CCN(C(=O)Nc3ccc(F)c(Cl)c3)CC2)nn1,i
O=C(c1ccco1)N1CCN(c2ncnc3[nH]ncc23)CC1,i
O=C(NCC(=O)N1CC(c2nc(-c3cccs3)no2)C1)c1ccccc1,i
COCCn1c(C)cc(C(=O)CSc2ncnc3sc4c(c23)CCC4)c1C,i
CON(C)C(=O)C1COCC(=O)N1Cc1cccs1 (stereo not given),i
C=CC1(C)CC(OC(=O)C(C)C)C(C(=C)C(=O)OC)C(O)C1C(=C)CO (stereo not given),i
Cc1cc2nn(CC(=O)NC(C)C)c(=O)n2c(-c2ccc(C(F)(F)F)cc2)n1,i
# The results go on:
SMILES,GIRK2 activ
O=C(Nc1ccccn1)c1cnn2c1OCCC2,i
O=C(Cn1cc(S(=O)(=O)c2ccc(F)cc2)c(=O)c2cc(F)ccc21)Nc1ccc(Cl)cc1,i
C[C@H]1COc2c(C3(N)CC3)c(F)cc3c(=O)c(C(=O)O)cn1c23,i
O=C(CCc1csc(NC(=O)c2cccs2)n1)NCc1ccco1,i
COc1cccc2cc(C(=O)Nc3ccc(CC(=O)NCc4cccs4)cc3)c(=O)oc12,i
COCC(=O)N1CCN(c2cc(-n3cccc3)nc(C)n2)CC1,i
COc1ccc(C2C(C(=O)Nc3ccccc3)=C(C)Nc3nc(C)nn32)cc1OC (stereo not given),i
Cc1nnc(SCC(=O)N2CCN(c3nnnn3-c3ccccc3)CC2)s1,i
O=C(Cc1ccc(F)cc1)NCCC(O)C1CC1 (stereo not given),i
CCCS(=O)(=O)N1CCN=C1SCc1ccccc1Cl,i

# Given as tab-separated lines: entries from further up.
Compound	GIRK2 activ
O=C(Cn1ccc2ccccc21)N1CCN(C(=O)C2CC2c2ccccc2)CC1 (stereo not given)	i
COc1cccc(NC(=O)N2CCN(Cc3nnnn3-c3ccccc3)CC2)c1OC	i
COCCn1cnc2c(-c3ccccc3)cn(CC(=O)Nc3ccc(Br)cc3)c2c1=O	i
COc1ccc(-n2nnc(C(=O)Nc3ccc(F)c(F)c3F)n2)cc1	i
Cc1ccc(N2CCN(C(=O)Nc3ccc(F)c(Cl)c3)CC2)nn1	i
O=C(c1ccco1)N1CCN(c2ncnc3[nH]ncc23)CC1	i
O=C(NCC(=O)N1CC(c2nc(-c3cccs3)no2)C1)c1ccccc1	i
COCCn1c(C)cc(C(=O)CSc2ncnc3sc4c(c23)CCC4)c1C	i
CON(C)C(=O)C1COCC(=O)N1Cc1cccs1 (stereo not given)	i
C=CC1(C)CC(OC(=O)C(C)C)C(C(=C)C(=O)OC)C(O)C1C(=C)CO (stereo not given)	i
Cc1cc2nn(CC(=O)NC(C)C)c(=O)n2c(-c2ccc(C(F)(F)F)cc2)n1	i
O=C(Nc1ccccn1)c1cnn2c1OCCC2	i
O=C(Cn1cc(S(=O)(=O)c2ccc(F)cc2)c(=O)c2cc(F)ccc21)Nc1ccc(Cl)cc1	i
C[C@H]1COc2c(C3(N)CC3)c(F)cc3c(=O)c(C(=O)O)cn1c23	i
O=C(CCc1csc(NC(=O)c2cccs2)n1)NCc1ccco1	i
COc1cccc2cc(C(=O)Nc3ccc(CC(=O)NCc4cccs4)cc3)c(=O)oc12	i
COCC(=O)N1CCN(c2cc(-n3cccc3)nc(C)n2)CC1	i
COc1ccc(C2C(C(=O)Nc3ccccc3)=C(C)Nc3nc(C)nn32)cc1OC (stereo not given)	i
Cc1nnc(SCC(=O)N2CCN(c3nnnn3-c3ccccc3)CC2)s1	i
O=C(Cc1ccc(F)cc1)NCCC(O)C1CC1 (stereo not given)	i
CCCS(=O)(=O)N1CCN=C1SCc1ccccc1Cl	i

# The list continues:
SMILES,GIRK2 activ
COc1cc(NC(=O)C2CC=CCC2)ncn1 (stereo not given),i
Cc1ccc(N2CCN(C(=O)COc3cc(-n4cccn4)nc(C)n3)CC2)nn1,i
Cc1ccc2c(CN3CCN(c4cccc(Cl)c4)CC3)cc(=O)oc2c1C,i
C=CCNC(=O)N1CCC(Cn2c(C(F)(F)F)nc3ccccc32)CC1,i
COC(=O)c1ccc(C(=O)NCCN2CCN(S(C)(=O)=O)CC2)cc1,i
NC(N)=NC(CCC(=O)O)C(=O)O (stereo not given),i
COc1ccc2cc(CNc3ccc(C)cc3)c(=O)n(CC(=O)Nc3cc(F)ccc3F)c2c1,i
COc1ccc(S(=O)(=O)c2cnc(SCC(=O)NCCC3=CCCCC3)[nH]c2=O)cc1Cl,i
COc1ccc(NC(=O)CN2C(=O)NC(c3ccc(C)cc3)C3=C2COC3=O)cc1OC (stereo not given),i
COc1ccc(S(=O)(=O)N2CCCc3cc(NS(=O)(=O)c4ccc(C)c(C)c4)ccc32)cc1,i
CCOc1ccccc1-c1nc(Cn2ccn3nc(-c4ccc(CC)cc4)cc3c2=O)c(C)o1,i
CN(C)CCOC(c1ccc(Cl)cc1)c1ccccn1 (stereo not given),i
CCOC(=O)CNC(=O)C(c1ccccc1)n1cccc1 (stereo not given),i
COc1ccc2oc(=O)c(C(=O)NCc3ccccn3)cc2c1,i
O=C(N1CCN(c2ncnc3c2nnn3-c2ccc(F)cc2)CC1)C12CC3CC(CC(C3)C1)C2,i

# Source: PubChem BioAssay
